# Screening data: PubChem BioAssay, National Center for Advancing Translational Sciences (NCATS)
# Vaccinia Venus: vaccinia inhibition (Venus reporter); Vaccinia virus Venus reporter expression, fluorescence; Potency, µM (highest dose often 36.5 µM), for inactives: at the top dose activity change, negative = inhibition, most hits filed as inhibitors; 0.46% of 330,000 active; AID 720580; active means well fitted inhibition curve with a large enough effect; inconclusive means small, poorly fitted or top-dose-only effect; inactive means no such curve, though single readings can be large or run the other way; tested in A549 cells; note: nearly all actives have a fitted effect of over 30% in size; inactives centre near -10
# VACV mCherry inh: vaccinia inhibition (mCherry reporter); AID 720579; Vaccinia virus mCherry reporter infection, fluorescence; about a quarter of the inactives have no number; Potency, µM (doses to about 36.5 µM), for the others: at the highest dose activity change, negative = inhibition, hits mostly inhibitors; 0.63% of 310,000 active; active = well fitted inhibition curve with a large enough effect; inconclusive = small, poorly fitted or top-dose-only effect; inactive = no such curve, though single readings can be large or run the other way; tested in A549 cells; note: nearly all actives have a fitted effect of over 35% in size; inactives centre near -10
# An asterisk follows results filed as active; i = inactive; ? = inconclusive; . = no result given; [ ] = another dose, or the depositor's remark. % is set by controls: 0 for no effect and ±100 for the full control effect; potency is the fitted concentration of half-maximal effect.
SMILES,Vaccinia Venus,VACV mCherry inh
Cc1sc2nc(CSCC(=O)N(C)c3ccccc3)[nH]c(=O)c2c1C,-4%,-8%
Cc1cc(C)cc(N(CC(=O)NC2CCCC2)C(=O)CNC(=O)c2ccco2)c1,-6%,-5%
CC(=O)Nc1scc(-c2ccccc2)[n+]1-c1ccc(C)cc1,-8%,-4%
CC(C)=C(NC(=O)c1ccco1)C(=O)NCCc1nc2ccccc2[nH]1,-8%,i
CC(=O)C1=C(C)Nc2ncnn2C1c1ccccc1F (configuration not stated),-8%,i
OCC[C@@H]1C[C@H](O)[C@@H](O)[C@]2(OCc3ccc(CO)cc32)O1,2%,i
CSc1nc(-c2ccccc2)c(C#N)c(=O)n1C,-10%,i
COC(=O)c1c(NC(=O)c2ccccc2)sc(C(=O)c2ccccc2)c1C,-2%,.
CN1CCC(N2CCN(C3CN(Cc4cn(Cc5ccc(C(F)(F)F)cc5)nn4)S(=O)(=O)C3)CC2)CC1 (configuration not stated),-13%,-4%
O=C(NCCOCCNC(=O)OCc1ccccc1)OCc1ccccc1,0%,-5%

# Reformatted as labelled records: 4 of the compounds above.
SMILES: Cc1sc2nc(CSCC(=O)N(C)c3ccccc3)[nH]c(=O)c2c1C
  Vaccinia Venus: -4%; VACV mCherry inh: -8%
SMILES: Cc1cc(C)cc(N(CC(=O)NC2CCCC2)C(=O)CNC(=O)c2ccco2)c1
  Vaccinia Venus: -6%; VACV mCherry inh: -5%
SMILES: CC(=O)Nc1scc(-c2ccccc2)[n+]1-c1ccc(C)cc1
  Vaccinia Venus: -8%; VACV mCherry inh: -4%
SMILES: CC(C)=C(NC(=O)c1ccco1)C(=O)NCCc1nc2ccccc2[nH]1
  Vaccinia Venus: -8%; VACV mCherry inh: i

# Going on with the list:
SMILES,Vaccinia Venus,VACV mCherry inh
Cc1cc(-c2nnc(SCC(=O)Nc3cccc(F)c3)n2N)n[nH]1,-8%,i
CS(=O)(=O)c1ccc(Cl)c(NC(=O)COC(=O)c2cccc(S(=O)(=O)N3CCCC3)c2)c1,5%,i
CCCCOC(=O)c1ccc(NC(=O)COC(=O)C2CC2C)cc1 (configuration not stated),-14%,0%
CCOC(=O)c1cnc2c(Cl)cccc2c1NCCN(C)C,2%,6%
Cc1ccc(C(=O)OCC(=O)N(C)c2ccccc2)cc1C,-7%,-11%
CCC(C)NC(=O)c1sc2nc(C)c(C(=O)Nc3ccc(Cl)cc3)c(-c3ccc(Br)cc3)c2c1N (configuration not stated),-6%,-10%
COc1ccc2c(c1)c([C@@H]1[C@H](C)[C@H]3CCCC[C@H]3CN1S(=O)(=O)c1ccc(C)cc1)cn2C,-26%,-14%
O=c1[nH]c2cnccc2n1-c1ccccc1,-22%,.
CCCOCCOC(=O)C1=C(C)NC(=O)NC1c1cc(Cl)c(O)c(OC)c1 (configuration not stated),-14%,i
COc1cccc(/C=N/NC(=O)CC(=O)NCCc2ccccc2)c1OC,-1%,i
CCC[C@@H]1C[C@@]1(CCC)[C@@H](NC(=O)c1ccccc1)c1ccc(C(=O)OC)cc1,-20%,-11%
COc1ccc(Br)c(-c2nnc(CS(=O)(=O)c3ccccc3)o2)c1,-5%,-11%
O=C1C(=O)c2cccnc2-c2ncccc21,14µM*,6.3µM*
CCCC(=O)NCCc1cc2ccc(C)c(C)c2[nH]c1=O,-8%,i
Cc1ccc(CCNC(=O)c2cc(S(=O)(=O)N3CCOCC3)cn2C)cc1,-17%,i
CN(C)CCN(C(=O)c1ccc2ccccc2c1)c1nc2cc3c(cc2s1)OCO3,-13%,-24%
O=C(Cc1ccc(-c2ccccc2)cc1)NCCN1CCOCC1,-13%,i
C=CCn1c(CSCc2ccccc2)nnc1SCC(=O)N1CCN(c2ccccc2)CC1,-10%,-28%
CCCCS(=O)CC(O)COc1ccc(C(C)(C)C)cc1 (configuration not stated),-6%,i
COc1ccc(-n2nc(C(=O)NCCc3cccc(C)c3)c3c4ccccc4n(C)c3c2=O)cc1Cl,-9%,-14%
O=C(CSc1nc2cc(Cl)ccc2c(=O)n1Cc1ccco1)Nc1ccc(S(=O)(=O)N2CCOCC2)cc1,-16%,i
CCOc1ccc(NS(=O)(=O)c2ccc(C(=O)N3CCCCCC3)cc2)cc1,-11%,-3%
O=C(CCS(=O)(=O)c1ccccc1)N1CCN(c2ccccc2)CC1,-12%,-7%
CCOP(=O)(OCC)C(O)c1cccnc1 (configuration not stated),-16%,i
CCC(C)(C)n1nnnc1C(c1ccc(Cl)cc1)N1CCN(C)CC1 (configuration not stated),-27%,.
Cc1cccc(C)c1NC(=O)CN(C)C(=O)c1ccc(COc2ccccc2)cc1,-7%,i
CC(=O)c1ccc(NC(=O)c2ccc(S(=O)(=O)c3ccccc3)cc2)cc1,-22%,i
CCN(CC)c1ccc(/C=N/N2CCN(Cc3ccccc3Cl)CC2)cc1,0%,-10%
CCCc1nc2nc(C)c(NS(=O)(=O)c3ccc4c(c3)CCCC4)c(=O)n2[nH]1,-7%,i
COC(=O)c1ccc(C(=O)N=c2sccn2C)cc1,-5%,i
COc1ccc(CNC(=O)C[C@@H]2CC[C@@H](NS(=O)(=O)c3cccc(OC)c3)[C@@H](CO)O2)cc1,-1%,22%
COc1ccc(CCNC(=O)c2ccc3c(c2)N(Cc2cccc(Cl)c2)C(=O)c2ccccc2S3=O)cc1OC (configuration not stated),-10%,-10%
Cc1cc(N2C(=O)C(O)=C(C(=O)c3ccc(C)o3)C2c2ccc(OCc3ccccc3)cc2)no1 (configuration not stated),-12%,?
O=C(NC(=S)Nc1ccccc1N1CCOCC1)c1ccc(-c2cccc(Cl)c2)o1,-7%,-8%
COc1ccc(N2C(=O)[C@@H]3[C@H](C2=O)[C@H]2c4ccccc4C=CN2[C@@H]3C(C)=O)cc1,3%,i
COc1cc(OC)c2c(=O)c(-c3ccc4c(c3)OCO4)coc2c1,8%,23%
CCC(C(N)=O)N1C(=O)C2C3CCC(C3)C2C1=O (configuration not stated),2%,-5%
CCCCOCCCn1c(N)c(C(=O)OCCOC)c2nc3ccccc3nc21,-25%,.
Cc1nnc(N2C(=O)c3oc4ccccc4c(=O)c3C2c2ccc(F)cc2)s1 (configuration not stated),4%,-10%
O=C1CCCN1CC(O)CS(=O)(=O)Cc1ccccc1Cl (configuration not stated),-10%,i
Clc1ccc(-c2nnc(NCc3ccccc3)c3ccccc23)cc1,?,?
COc1ccc(C(=O)NC(=S)N2C[C@H]3C[C@H](C2)c2cccc(=O)n2C3)cc1OC,-8%,-4%
CC(=O)c1c(O)cc(=O)n(-c2ccccc2)c1-c1ccc(Cl)cc1,-7%,i
Cc1cccc(N2CCN(C(=O)c3cn(C)c4ccc(S(=O)(=O)N(C)C)cc4c3=O)CC2C)c1 (configuration not stated),-22%,-17%
Cc1onc(C(=O)NCc2ccccn2)c1[N+](=O)[O-],10%,i
COC(=O)CCN(C(=O)c1ccc(N2CCCCC2)c([N+](=O)[O-])c1)c1ccccn1,0%,-13%
Cc1cccc(N2CCN(c3nc4ccc(C)cc4n4cnnc34)CC2C)c1 (configuration not stated),-18%,-27%
Cc1ccc(-n2ncc3c(NCCCN4CCOCC4)ncnc32)cc1C,-19%,-25%
Cc1cc(C)cc(NCc2cc3c(cc2[N+](=O)[O-])OCO3)c1,-11%,i
COc1ccc2cc(/C=C3\SC(=S)NC3=O)c(N3CCOCC3)nc2c1,-11%,-3%
# New compounds follow.
SMILES,Vaccinia Venus,VACV mCherry inh
CCOC(=O)C1(c2ccccc2)CCN(CC(O)c2ccc(NC(C)=O)cc2)CC1 (configuration not stated),-7%,-5%
Cc1ccccc1C(=O)N/N=C1/SCC(=O)N1Cc1ccc2c(c1)OCO2,-16%,-15%
COc1ccc(N2CCN(C(=O)C3CCN(S(=O)(=O)Cc4ccccc4)CC3)CC2)cc1,10%,-2%
COc1ccc(C)cc1NC(=O)C(Sc1nncn1C)c1ccccc1 (configuration not stated),-5%,i
O=C(NCC1CCCO1)C(c1cccs1)N(C(=O)c1ccc(-c2ccccc2)[nH]1)C1CCCC1 (configuration not stated),-18%,-4%
Cc1onc(-c2ccccc2)c1C(=O)c1c[nH]c(C(=O)NCc2ccccn2)c1,-19%,-5%
CC(=O)N/C(=C/c1ccc2c(c1)OCO2)C(=O)O,12%,11%
CCCCc1cc(=O)oc2cc(C)cc(OCC(=O)NC(Cc3ccc(Cl)cc3)C(=O)O)c12 (configuration not stated),-5%,-5%
CCOc1ccccc1C(=O)NCC(=O)NCC(c1ccc(OC)cc1)N1CCOCC1 (configuration not stated),1%,i
COc1ccc(C(C)=O)cc1COC(=O)CSCC(=O)Nc1ccc(C)cc1,0%,-17%
COc1ccccc1-c1ccc(C(=O)O)o1,0%,-2%
C/C(=N\NC(=O)c1cccc2ccccc12)c1cccnc1,-19%,i
Cc1cc2c(s1)c1cnn(CC(=O)NCCc3ccccc3)c(=O)c1n2C,-8%,i
C=CCNC(=S)N(C1CCCCC1)C1CCCCC1,-5%,-2%
CC(C)C(NS(=O)(=O)c1ccc2c(c1)Cc1cc(S(=O)(=O)NC(C(=O)O)C(C)C)ccc1-2)C(=O)O (configuration not stated),-4%,-14%
CCCCOc1ccc(C(C)NC(=O)C2CCCN(S(=O)(=O)CCC)C2)cc1 (configuration not stated),-16%,-4%
CCOC(=O)Cn1cc(C#N)c(=O)[nH]c1=O,-4%,i
O=C(NCc1ccccc1)c1c2c(nc3ccccc13)C(=O)N(C1CCCCC1)C2,-16%,-2%
CS(=O)(=O)N1CCC(n2c(C(F)(F)F)nc3cccnc32)CC1,4%,-7%
CCOC(=O)[C@]12CCCC=C1N(Cc1ccc(Cl)cc1Cl)C(=O)[C@H](CC(=O)NCC13CC4CC(CC(C4)C1)C3)C2,-15%,9%

# Entries above that have fluorine, in the order listed:
SMILES,Vaccinia Venus,VACV mCherry inh
CC(=O)C1=C(C)Nc2ncnn2C1c1ccccc1F (configuration not stated),-8%,i
CN1CCC(N2CCN(C3CN(Cc4cn(Cc5ccc(C(F)(F)F)cc5)nn4)S(=O)(=O)C3)CC2)CC1 (configuration not stated),-13%,-4%
Cc1cc(-c2nnc(SCC(=O)Nc3cccc(F)c3)n2N)n[nH]1,-8%,i
Cc1nnc(N2C(=O)c3oc4ccccc4c(=O)c3C2c2ccc(F)cc2)s1 (configuration not stated),4%,-10%
CS(=O)(=O)N1CCC(n2c(C(F)(F)F)nc3cccnc32)CC1,4%,-7%

# Next section.
SMILES,Vaccinia Venus,VACV mCherry inh
Oc1ccc(C[C@H]2CNCCN2CCC23CC4CC(CC(C4)C2)C3)cc1,?,-19%
COc1ccc(OC)c(S(=O)(=O)N2CCC3(CC2)CC(=O)c2ccccc2O3)c1,-17%,i
COCCn1c(SCC(=O)Nc2ccccc2F)nc2c([nH]c3ccccc32)c1=O,-13%,-17%
Cc1ccc(S(=O)(=O)N2[C@@H](c3cccc(C)c3)C(C(=O)O)=C[C@H]2C(C)(C)C)cc1,7%,i
COCc1ccc(-c2c(-c3ccsc3)sc3ccccc23)cc1,-7%,i
O=C(N/N=C/c1c(F)cccc1Cl)c1ccc(Cn2cc(Br)cn2)o1,-7%,-10%
CC1CCCCC1NC(=O)CCCN1C(=O)c2ccccc2C1=O (configuration not stated),1%,-10%
Nc1cnn(Cc2ccccc2F)c1,-1%,i
Cc1ccc(CNCc2c(C(=O)O)n(Cc3ccccc3C)c3cc(C)ccc23)cc1,?,?
COc1ccc(-c2nnc(SCC(=O)Nc3ccc(C)c(Cl)c3)nc2-c2ccc(OC)c(OC)c2)cc1OC,-5%,-17%
COC(=O)[C@@]12CCCCN1[C@H](c1ccc(-c3cc(C(C)=O)cs3)cc1)[C@H]1C(=O)N(C)C(=O)[C@H]12,?,-11%
CC(Cc1c[nH]c2ccccc12)NC(N)=O (configuration not stated),-17%,-8%
O=C(Cn1cnc2c(cnn2-c2ccc(Cl)cc2)c1=O)NCCc1ccccc1,-10%,.
Cc1cc(C)c2c(=O)[nH]c(SCC(=O)Nc3cccc(S(=O)(=O)N(C)C)c3)nc2n1,-15%,i
CCn1c(=S)ccc2ccc(OC)cc21,-13%,-13%[1.46 µM]
CC(C)=C1C2CCC1C1C(=O)N(c3nc(-c4ccc(F)cc4)c(C)s3)C(=O)C21 (configuration not stated),-7%,-25%
COC(=O)c1ccc(NC(=O)c2cccc(C)c2)cc1,-14%,-3%
COc1ccc(Cl)cc1C(=O)Nc1ccc(Br)c(C)n1,6%,-1%
CCOc1ccc(S(=O)(=O)N2CCOCC2)cc1NC(=O)C1CSC2(C)CCC(=O)N12 (configuration not stated),1%,-12%
CC(=O)C[C@@H]1SC[C@H](c2ccccc2)N1S(=O)(=O)c1ccc(C)cc1,-29%,-11%
O=C(CSc1nnc(CNC(=O)c2ccccc2F)o1)Nc1cccc(C(F)(F)F)c1,-19%,-9%
CC(=O)N1CCc2cc(S(=O)(=O)NCCC(=O)Nc3ccc4c(c3)OCCO4)ccc21,-15%,i

# Random draw from the library; about 0.87% have a hit in one of these screens.
